GLA inh pH 4.5: qHTS Assay for Inhibitors of Human alpha-Galactosidase at pH 4.5; purified enzyme, 4-MU-alpha-Gal fluorescence, pH 4.5; activity change, negative = inhibition, % at 105 µM; 230,000 tested, under 10 active; Alpha-galactosidase A (Homo sapiens), P06280; inconclusive = small, poorly fitted or top-dose-only inhibition, or a rising curve; inactive = flat fitted curve, though single readings scatter; no compound was filed as active;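 also: 0% = full activity with enzyme and -100% = basal without enzyme; dose as in the result columns while the protocol names 77 µM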
Rango dissoc inh: qHTS Assay for Inhibitors of RanGTP induced Rango (Ran-regulated importin-beta cargo) - Importin beta complex dissociation. Snurportin-1 (Homo sapiens) + GTP-binding nuclear protein Ran (Homo sapiens) + Importin …. Biochemical FRET Rango-importin beta, RanGTP-induced dissociation. Potency, µM (series often up to 46.1 µM), inactives show at the top dose activity change, negative = inhibition. 340,000 tested, 0.071% active; active means falling FRET ratio curve, often poorly fitted, with flat reads before Ran was added; inconclusive means other falling curves, or compound fluorescence or quenching; inactive means flat or rising ratio curve;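 also: potency is read from the fitted curve at half-maximal effect; % of control where 0% means no effect; nearly all actives have a fitted effect of over 45% in size; -100% = wells without RanGTP and RCC1; the record marks most hits as doubtful in a second field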
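Two FRET readings bracket the reaction: one 5 min after compound meets Rango–importin beta, another 45 min after RanGTP-RCC1 (0.6 uM Ran, 0.2 uM RCC1, 2 mM GTP) is added. Only the second defines inhibition.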
miR-21 FLuc: qHTS Assay for Modulators of miRNAs and/orActivators of miR-21; Potency, µM (series often up to 38.3 µM), without a hit: at the top dose reporter change, positive = more light; HeLa miR-21 FLuc reporter, luciferase, 48 h; 340,000 tested, under 10 active; active = well fitted rising curve with a large enough effect; inconclusive = small, poorly fitted or top-dose-only effect; inactive = no such curve, though single readings can be large or run the other way;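 also: % of control where 0% means no effect; miR-21 action dims this reporter so a rising signal means less miR-21 action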
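HeLa cells stably expressing CMV-driven firefly luciferase with a downstream miR-21 binding sequence, endogenously expressing miR-21, were treated with titrations (up to about 40uM final) for 48 hours at 37 degree Celsius. Luciferase luminescence was read after lysis.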
Rango complex inh: qHTS Assay for Inhibitors of Rango (Ran-regulated importin-beta cargo) - Importin beta complex formation. Importin subunit beta-1 (Homo sapiens), Q14974. Rango CFP/YFP FRET sensor + importin beta, 45 min. Potency, µM (doses to about 92.2 µM), without a hit: at the top dose inhibition of complex formation. 340,000 tested, 0.031% active; active = rising FRET ratio curve, often small or poorly fitted; inconclusive = mostly compound fluorescence or quenching in the first reads; inactive = flat curves in all reads;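 also: potency is read from the fitted curve at half-maximal effect; 0% = DMSO wells and 100% = buffer wells lacking importin beta; nearly all actives have a fitted effect of over 15% in size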
Target sequence (Q14974 whole entry, looked up): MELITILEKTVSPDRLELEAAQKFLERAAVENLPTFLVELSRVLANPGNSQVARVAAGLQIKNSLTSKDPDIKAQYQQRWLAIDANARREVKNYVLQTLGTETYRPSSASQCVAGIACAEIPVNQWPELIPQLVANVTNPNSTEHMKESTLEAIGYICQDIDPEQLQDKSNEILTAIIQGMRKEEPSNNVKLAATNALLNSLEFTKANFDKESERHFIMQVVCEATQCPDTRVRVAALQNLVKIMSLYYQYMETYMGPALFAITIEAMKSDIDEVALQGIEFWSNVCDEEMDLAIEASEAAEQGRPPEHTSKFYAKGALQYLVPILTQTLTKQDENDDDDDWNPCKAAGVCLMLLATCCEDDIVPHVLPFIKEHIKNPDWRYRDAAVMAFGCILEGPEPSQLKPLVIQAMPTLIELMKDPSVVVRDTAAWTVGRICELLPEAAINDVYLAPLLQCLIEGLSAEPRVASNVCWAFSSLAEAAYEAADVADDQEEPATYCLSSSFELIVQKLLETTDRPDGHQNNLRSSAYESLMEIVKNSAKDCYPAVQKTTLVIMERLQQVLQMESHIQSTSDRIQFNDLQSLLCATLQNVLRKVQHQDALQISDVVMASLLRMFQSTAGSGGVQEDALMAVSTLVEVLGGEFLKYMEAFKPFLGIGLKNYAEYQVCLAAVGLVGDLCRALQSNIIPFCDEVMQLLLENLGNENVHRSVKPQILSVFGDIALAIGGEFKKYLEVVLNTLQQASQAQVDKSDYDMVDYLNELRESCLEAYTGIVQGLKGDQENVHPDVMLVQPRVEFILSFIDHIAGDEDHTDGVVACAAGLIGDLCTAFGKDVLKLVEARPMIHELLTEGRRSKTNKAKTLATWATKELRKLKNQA
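Inhibition scored from the CFP 486 nm/YFP 530 nm FRET ratio 45 min after adding 0.125 microM importin beta to 50 nM Rango biosensor preincubated 5 min with compound (room temperature, PBS with DTT, Tween-20, BSA). No-importin wells as positive control.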
An asterisk follows results filed as active; ? = inconclusive; / = no result given; & = joins results of further samples; [ ] = remark or other dose. An excerpt; count on the stated rates, not on these rows.

The line under a structure holds: GLA inh pH 4.5	Rango dissoc inh	miR-21 FLuc	Rango complex inh
NC(=O)C1C(c2ccccc2)=C1c1ccccc1
→ -5	0%	2%	1.4%
Cc1ccccc1OCC(=O)OCC(=O)NCCNC(=O)COC(=O)COc1ccccc1C
→ /	-2%	/	?
Cc1ccc(/C=N/NC(=O)c2ccc(OC3CCCC3)cc2)o1
→ /	-29%	-1%	4.1%
CCNC(=S)Nc1cc(-c2ccc(Cl)cc2)[nH]n1
→ 3	13%	-24%	-0.2%
CCSC1=NCCN1C(=O)C(C)(C)Oc1ccc(Cl)cc1
→ 1	18%	0%	1.4%
COc1ccccc1CC(=O)NCCCc1ccccc1
→ /	1%	-13%	-1.0%
CCCCCN(C(=O)NC(=O)Nc1ccccc1OC)S(C)(=O)=O
→ -8	0%	-6%	-4.0%
COCCNC(=S)N/N=C/c1ccc(-c2ccc([N+](=O)[O-])cc2)o1
→ -5	?	1%	?
Clc1ccc2c(c1)-c1nnc(Br)n1-c1ccccc1S2
→ -6	-2%	-3%	-1.4%
Cc1ccc(NC(=O)c2c3c(nc4ccccc24)CCC3)cc1
→ -1	28%	-8%	-2.5%

Other records follow:
The line under a structure holds: GLA inh pH 4.5	Rango dissoc inh	miR-21 FLuc	Rango complex inh
Cc1ccc(/C=C/C(=O)NC(=S)N2CCN(c3ccc(F)cc3)CC2)cc1
→ -5	5%	-8%	6.5%
CCn1nc(NC(C)=O)c2cc3ccc(C)cc3nc21
→ /	9.2µM*	-4%	?
CCN(CC)S(=O)(=O)c1cc(C(=O)NC2CCCCC2)ccc1C
→ -1	-11%	-39%	1.1%
CC1CN(CC(O)COc2ccc(C(=O)c3ccccc3)cc2)CC(C)O1 (configuration not stated)
→ 2	2%	-7%	-3.9%
CCN(CC)S(=O)(=O)c1ccc(N2CCCCC2)c(NC(=O)/C=C/c2ccc(OC)c(OC)c2)c1
→ -9	2%	-5%	1.3%
O=c1c2ccccc2c(/C=N/n2cnnc2)c(O)n1-c1ccccc1
→ -2	?	-6%	?
O=C(N/N=C/c1ccccn1)c1cccc(NC(=O)c2ccccc2Cl)c1
→ /	-12%	-13%	0.4%
O=C(O)C1CCN(C(=O)COc2ccc3c4c(c(=O)oc3c2)CCCC4)CC1
→ /	17%	1%	-0.7%
CCOC(=O)CCS(=O)(=O)c1ccc(-c2ccc(S(=O)(=O)CCC(=O)OCC)cc2)cc1
→ -7	4%	-1%	0.3%
CCCn1c(C(O)c2ccc(OCC)cc2)nc2ccccc21 (configuration not stated)
→ 2	-15%	-12%	-0.9%

The list continues:
The line under a structure holds: GLA inh pH 4.5	Rango dissoc inh	miR-21 FLuc	Rango complex inh
CC(C)(CNS(=O)(=O)c1ccc2ccccc2c1)N1CCOCC1
→ /	26%	/	-0.4%
CC(=O)Nc1ccc(NC(=O)C2CCCN2/C=C/C(=O)C(F)(F)F)cc1 (configuration not stated)
→ 6	-7%	-3%	-4.7%
CCCC[C@H]1COCCS(=O)(=O)N1Cc1cccc([N+](=O)[O-])c1
→ /	0%	-2%	2.1%
Nc1ccc(S(=O)(=O)Nc2cnc3c(Cl)cccc3n2)cc1
→ /	20%	/	-1.9%
COc1ccc(C(CNC(=O)c2cccc(S(=O)(=O)Nc3ccc(F)cc3)c2)N2CCCCC2)cc1 (configuration not stated)
→ /	-2%	/	-0.7%
NNc1nc2sc3c(c2c(=O)n1C1CCCCC1)CCN(Cc1ccccc1)C3
→ -4	?	15%	?
CC1=CC(=O)C=C(C)C1=NOS(=O)(=O)c1ccccc1
→ -1	1%	?	-0.6%
COc1ccc(N2CCN(Cc3cc(=O)c(OCC(=O)NC4CCCC4)co3)CC2)cc1
→ /	3%	/	-0.3%
C=CCc1ccc(OCC(O)CN2CCc3ccccc3C2)c(OC)c1 (configuration not stated)
→ /	-9%	2%	-2.6%
O=C(C1CCCCC1)N(Cc1nc2sc3c(c2c(=O)[nH]1)CCCC3)Cc1cccs1
→ -4	1%	-5%	?

More compounds
The line under a structure holds: GLA inh pH 4.5	Rango dissoc inh	miR-21 FLuc	Rango complex inh
COC(=O)CNC(=O)C(NC(=O)c1ccc(Cl)cc1)C(C)C (configuration not stated)
→ 5	22%	-1%	-1.6%
CC(C)(C)OC(=O)N1CCC(c2c(C(=O)NC3CC3)cnn2-c2ccccc2)CC1
→ /	0%	0%	0.1%
CCn1c(-c2cc3ccccc3cc2O)n[nH]c1=S
→ 19	-2%	-26%	2.1%
Cc1cc(N2CCN(c3ncccn3)CC2)nc2c(C)cccc12
→ /	0%	0%	3.4%
C=CCSc1nnc(NC(=O)c2ccc(N3CCCC3=O)cc2)s1
→ /	-2%	/	-0.2%
O=c1[nH]cnc2nn(-c3ccccc3)nc12
→ 8	?	-33%	2.4%
Cc1ccc(Cl)cc1N1CCN(Cc2nnnn2C2CCCCC2)CC1
→ -17	-3%	1%	-1.6%
COc1ccc(NC(=O)C2CCCN2C(=O)NC2CCCCC2)cc1 (configuration not stated)
→ /	-4%	0%	0.6%
CC(C)(C)OC(=O)N1CCC[C@H]1c1nnc(SCc2ccccc2)o1
→ -6	10%	-5%	-1.4%
O=C(CSc1nnc2ccccn12)NCc1ccco1
→ 1[21.1 µM]	14%	1%	4.0%

New compounds follow
The line under a structure holds: GLA inh pH 4.5	Rango dissoc inh	miR-21 FLuc	Rango complex inh
COc1ccc(Cn2ccnc2SCC(=O)Nc2ccccc2F)cc1
→ /	-17%	-10%	-5.5%
Cc1cc(C)c2nc(NCc3ccccc3O)sc2c1
→ /	22%	-50%	-2.0%
O=C(Cn1ccc2ccccc2c1=O)NCCC(=O)N1CCN(c2cccc(Cl)c2)CC1
→ 5	7%	9%	?
O=C(Nc1c(Cl)cc2c(c1Cl)Cc1cc([N+](=O)[O-])ccc1-2)C(Cl)Cl
→ /	-5%	/	-0.3%
COc1ccc(CCNC(=O)C(=O)NCC2OCCN2C(=O)c2ccc(Cl)cc2)cc1OC (configuration not stated)
→ /	-8%	2%	0.6%
Cn1cc(Br)c(C(=O)NNC(=O)c2ccc(Br)cc2)n1
→ -6	28%	-57%	2.7%
Cc1nc2nc(SCC(=O)c3ccc([N+](=O)[O-])cc3)[nH]c2cc1Br
→ 1	-1%	-25%	-1.4%
Cc1ccc2cc(C#N)c(N3CCCN(S(=O)(=O)c4ccccc4)CC3)nc2c1C
→ /	?	/	?
O=C(CNC(=O)c1cccs1)Nc1ccc(N2CCOCC2)cc1
→ /	0%	/	-1.1%
COCC(=O)N1CCCN(c2nc3c(C)cccc3cc2C#N)CC1
→ 2	?	-2%	?

The listing continues.
The line under a structure holds: GLA inh pH 4.5	Rango dissoc inh	miR-21 FLuc	Rango complex inh
CCC1Oc2ccc(C)cc2N(CC(=O)NCCc2ccc(OC)c(OC)c2)C1=O (configuration not stated)
→ /	2%	/	-2.3%
CCc1ccc(CNC(=O)CCc2nc(-c3cccs3)no2)cc1
→ 2	1%	-5%	-4.3%
CCN(c1ccccc1)S(=O)(=O)c1ccc(Cl)c(C(=O)NC2CCN(Cc3ccccc3)CC2)c1
→ /	-4%	/	0.1%
CCOC(=O)c1cc(CC)sc1NC(=O)CN1CCN(C(=O)C2CCCO2)CC1 (configuration not stated)
→ /	-2%	-5%	-0.3%
CN1C(=O)NC(c2ccccc2[N+](=O)[O-])C2=C1CCCC2=O (configuration not stated)
→ /	?	0%	?
CC(=O)c1cccc(NC(=O)CCS(=O)(=O)c2cc3c(cc2C)NC(=O)CO3)c1
→ /	0%	2%&2%	5.0%
COc1ccc(-n2c(=S)[nH]c3cc(C(=O)NCCCN4CCOCC4)ccc3c2=O)cc1
→ /	-6%	-1%	-0.5%
COc1cc(/C=C2\C(=N)N3N=C(C)SC3=NC2=O)cc(Cl)c1OCCOc1ccc(NC(C)=O)cc1
→ /	-8%	0%	?
CCCC[n+]1c(C)sc2cc(OC)ccc21
→ 3	13%	0%	-0.6%
CCN(CC)CCn1c(=S)[nH]c2cc3c(cc2c1=O)OCO3
→ -4	8%	-2%	3.7%

(next part)
The line under a structure holds: GLA inh pH 4.5	Rango dissoc inh	miR-21 FLuc	Rango complex inh
Cc1ccc(C(=O)NNc2nc3ccccc3nc2C(F)(F)F)cc1
→ -6	9%	-2%	-0.8%
CCN(CC(=O)NCc1ccc(F)cc1)C(=O)c1ccc(COc2ccccc2)cc1
→ /	-2%	-17%	0.5%
C[C@H](CO)N1C[C@H](C)[C@@H](CN(C)Cc2ccc3c(c2)OCO3)Oc2ccc(NC(=O)Cn3cnnn3)cc2C1=O
→ /	7%	/	-2.6%
COCCN(C(=S)Nc1ccc(C)cc1C)C(C)c1ccco1 (configuration not stated)
→ 2	9%	-8%	4.4%
O=C(OCCCN1CCOCC1)c1ccc(O)c(O)c1
→ -8	-14%	-51%	-2.4%
CC(C)NC(=O)Cn1cnc2c1c(=O)n(C)c(=O)n2C
→ 0	3%	-1%	-4.2%
Fc1ccc(Cn2nnc(-c3ccc(CN4CCOCC4)cc3)n2)cc1
→ -1	-12%	-9%	-0.2%
COc1ccc(OC)c(-n2c(-c3cc(-c4ccco4)[nH]n3)n[nH]c2=S)c1
→ -1	-1%	-2%	-2.5%
C=CCN1C(=O)C(CC(=O)Nc2ccccc2)S/C1=N/c1nccs1 (configuration not stated)
→ -1	-13%	2%	2.6%
COc1ccc(S(=O)(=O)N(C)CC(=O)NCc2cccnc2)cc1
→ 3	-22%	-3%	-1.1%

The results go on:
The line under a structure holds: GLA inh pH 4.5	Rango dissoc inh	miR-21 FLuc	Rango complex inh
CCOC(=O)C(NCc1ccc(F)cc1)(NC(=O)c1ccccc1)C(F)(F)F (configuration not stated)
→ 2	-5%	-1%	0.8%
O=C(Nc1cccc2nsnc12)c1ccc(F)cc1
→ -4	?	-22%	?
Cc1ccc(C)n1-c1ccc(C#N)cn1
→ 6	1%	-2%	6.8%
COc1ccc(S(=O)(=O)N(CC(=O)NCc2ccncc2)c2ccc(C)cc2)cc1Br
→ /	1%	-4%	5.2%
CCN(CC(=O)Nc1c(F)cccc1F)C(=O)CNC(=O)COc1ccccc1
→ /	19%	/	-0.4%
Cc1nc2c(cc1NC(=O)C(C)(C)C)nc(C)n2Cc1ccccc1
→ /	9%	-1%	-5.0%
CCCCN(C(=O)c1cccc(S(=O)(=O)N2CCCCC2)c1)C1CCS(=O)(=O)C1 (configuration not stated)
→ /	4%	1%&0%	1.0%
Cn1c(CSCc2ccc(Cl)cc2)nnc1SCC(=O)Nc1nccs1
→ 2	2%	-2%	0.5%
CN(Cc1nc2ccccc2c(=O)[nH]1)CC(O)COCc1ccco1 (configuration not stated)
→ -3	1%	-9%	0.7%
COc1ccc(C)cc1S(=O)(=O)Nc1cc2c3c(c1)C(C)C(=O)N3CCC2 (configuration not stated)
→ /	2%	/	-0.8%

Following part
The line under a structure holds: GLA inh pH 4.5	Rango dissoc inh	miR-21 FLuc	Rango complex inh
Cc1c(NC(=O)C(C)N(c2ccccc2)S(C)(=O)=O)c(=O)n(-c2ccccc2)n1C (configuration not stated)
→ -3	-2%	1%	-2.7%
Cc1c(NC(=O)CCCCCN2C(=O)C3C4C=CC(C4)C3C2=O)c(=O)n(-c2ccccc2)n1C (configuration not stated)
→ -1	-13%	-11%	-2.1%
Cc1c(C(=O)N2CCN(S(=O)(=O)c3cccs3)CC2)oc2ccc(F)cc12
→ /	-21%	/	1.0%
COc1ccc2cc(CCNC(=O)CCc3ccccc3)c(=O)[nH]c2c1
→ /	-12%	-7%	3.8%
COc1ccc(/C=C(\NC(=O)c2ccccc2)C(=O)N2CCN(C)CC2)cc1
→ /	-4%	-7%	?
O=C(NCc1ccccc1)Nc1cccn(Cc2c(F)cccc2Cl)c1=O
→ -1	21%	9%	0.4%
O=C(CCCCCCCC(=O)N1CCCCC1)N1CCCCC1
→ /	5%	/	-2.3%
Cc1[nH]c2ccccc2c1SCC(=O)NNC(=O)Nc1ccc(OC(F)(F)F)cc1
→ -12	-4%	3%	3.1%

Screens as filed in PubChem BioAssay.
